gsp antag: antagonizes gsp, the McCune-Albright syndrome mutation | gsp-mutant cells, cAMP HTRF, 30 min; control for the full effect not named in the record | Potency, µM (series often up to 76.9 µM), for the others: at the highest dose activity change, negative = inhibition, most hits filed as inhibitors | 0.4% of 340,000 active | AID 624288; active = falling curve of any shape with a large fitted effect; inconclusive = falling curve, mostly with a smaller effect; inactive = flat or rising curve; cell line not stated here;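 note: intracellular cAMP measured with PDE inhibitor Ro 20-1724 present during compound exposure; potency is the fitted concentration of half-maximal effect; % is set by controls: 0 for no effect and ±100 for the full control effect; nearly all actives have a fitted effect of over 65% in size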
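HTRF cAMP measurement after 30 min RT detection following 30 min, 37C compound treatment alongside […] (added as 300 uM solution) in G418-selected cells seeded at 2000/well and grown 16–24 h.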
TRPV1 PAM: enhances activation of the human vanilloid receptor TRPV1; TRPV1-expressing cells, Fluo-8 calcium influx, capsaicin EC20 potentiation; host cell line not named in the record; control for the full effect not named in the record; potentiation, % at 8.33 µM; 0.02% of 320,000 active; AID 540277; active means potentiation above 80%; inconclusive means 30% to 80%; inactive means below 30%; note: 0% is about no effect
Target sequence (Q8NER1 whole entry, looked up): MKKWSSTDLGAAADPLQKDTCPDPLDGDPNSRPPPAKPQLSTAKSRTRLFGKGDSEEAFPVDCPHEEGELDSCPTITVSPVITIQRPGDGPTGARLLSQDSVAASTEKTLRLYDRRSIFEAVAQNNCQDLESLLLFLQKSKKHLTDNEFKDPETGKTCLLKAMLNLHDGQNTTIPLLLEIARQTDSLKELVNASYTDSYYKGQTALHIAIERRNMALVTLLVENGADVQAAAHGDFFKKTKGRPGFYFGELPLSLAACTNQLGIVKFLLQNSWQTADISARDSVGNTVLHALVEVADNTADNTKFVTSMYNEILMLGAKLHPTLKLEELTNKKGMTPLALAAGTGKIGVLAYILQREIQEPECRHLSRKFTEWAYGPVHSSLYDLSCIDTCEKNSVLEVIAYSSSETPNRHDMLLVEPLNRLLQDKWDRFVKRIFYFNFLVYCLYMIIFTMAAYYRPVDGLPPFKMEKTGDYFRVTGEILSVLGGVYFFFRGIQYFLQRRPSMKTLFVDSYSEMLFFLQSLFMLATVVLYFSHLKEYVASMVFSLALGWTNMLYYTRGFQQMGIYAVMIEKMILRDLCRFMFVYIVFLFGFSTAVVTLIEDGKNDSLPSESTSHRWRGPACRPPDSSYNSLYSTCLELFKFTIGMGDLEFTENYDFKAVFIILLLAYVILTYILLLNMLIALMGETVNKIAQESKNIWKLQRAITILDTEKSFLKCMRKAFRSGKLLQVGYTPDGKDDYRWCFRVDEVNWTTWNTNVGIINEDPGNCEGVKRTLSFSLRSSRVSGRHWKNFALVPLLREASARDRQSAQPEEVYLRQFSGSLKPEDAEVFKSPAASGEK
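Fluo-8 calcium influx in TRPV1-expressing cells, kinetic read (ex 480/em 520 nm). Compound added and read 3 min for agonist activity, followed by capsaicin at EC20 final and 2 min further read for enhancement.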
Sfp PPTase inh: blocks B. subtilis Sfp PPTase activity; Biochemical Sfp PPTase activity, qHTS; Q9F4F7; AID 1490; 3.5% of 310,000 active; Potency, µM, for the others: max response, negative = inhibition, usual class: inhibitors; active = well fitted inhibition curve with a large enough effect; inconclusive = small, poorly fitted or top-dose-only effect, or another doubt; inactive = no such curve, though single readings can be large or run the other way;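 note: the enzyme is Sfp with the accession as filed and its product quenches rhodamine fluorescence; potency is the fitted concentration of half-maximal effect; 0% = enzyme reaction without inhibitor and -100% = no enzyme wells; top concentration of the series not given in the record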
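Sfp 15 nM + cpd, 15 min RT; start w/ rhodamine-CoA 5 uM, BHQ-2-YbbR 12.5 uM (final); 50 mM Hepes pH 7.6, 10 mM MgCl2, 0.01% NP-40, 0.01% BSA; read 525/598 nm at 0 and 30 min.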
CtBP-E1A blk: inhibitors of CtBP/E1A interaction; 0.49% of 340,000 active; AlphaScreen GST-E1A/His-CtBP binding, 1536-well; stronger effect = lower value; control for the full effect not named in the record; activity change, % (concentration not given with the values); AID 651724; in the data active means activity change below about -65%; inconclusive means about -30% to -65%; inactive means above about -30%; note: % is set by controls: 0 for no effect and ±100 for the full control effect
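In 5 uL wells, 23 nL compound meets equimolar GST-E1A and His-CtBP (5X stock 125 nM each) for 2 h, 37 °C. Beads (5X, 50 ug/mL) then 1 h, 37 °C, dark.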
ClpP mod: qHTS Assay for Activators of ClpP. ATP-dependent Clp protease proteolytic subunit (Bacillus subtilis (strain 168)), P80244. purified B. subtilis ClpP, FRET peptide cleavage, 20 min. Potency, µM (series often up to 57.5 µM), without a hit: top-dose activity change, negative = active. 1.9% of 340,000 active; active = well fitted falling curve with a large enough effect; inconclusive = small, poorly fitted or top-dose-only effect; inactive = no such curve, though single readings can be large or run the other way; note: potency is the fitted concentration of half-maximal effect; the source files actives as falling curves though it sought activators and does not explain the sign; nearly all actives have a fitted effect of over 65% in size; many hits overshoot -100%
Target sequence (P80244 whole entry, looked up): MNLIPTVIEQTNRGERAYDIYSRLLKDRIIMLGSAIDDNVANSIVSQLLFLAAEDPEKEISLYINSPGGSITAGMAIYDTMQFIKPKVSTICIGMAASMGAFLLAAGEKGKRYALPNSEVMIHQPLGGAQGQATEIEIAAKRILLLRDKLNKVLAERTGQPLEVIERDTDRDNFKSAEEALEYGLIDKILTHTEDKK
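FRET quenching reversal measured ClpP activation: 10 microg/mL B. subtilis ClpP at pH 8 with the FRET-FV decapeptide, read at 430 nm after 320 nm excitation. The 20-min minus 0-min signal was scaled between DMSO/no-enzyme wells and ADEP (5.8 microM final).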
Menin MLL FP FL: displaces fluorescein MLL peptide from human menin. Fluorescence polarization, fluorescein-MLL peptide displacement from menin. FP activity change, % at 61.4 µM. 290,000 tested, under 10 active. AID 1766; inconclusive = falling polarisation curve, or a change in total fluorescence; inactive = total fluorescence flat and polarisation flat or rising; no compound was filed as active; the % refers to the polarisation; negative = inhibition;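 note: % of control where 0% means no effect; inhibitors lower the polarisation; unlabelled MLL peptide was the positive control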
gsp ag: gsp mutant agonism | gsp mutant cells, cAMP HTRF, 30 min; control for the full effect not named in the record | Potency, µM (series often up to 76.9 µM), for inactives: at the top dose activation (cAMP increase), actives largely listed as activators | 0.13% of 340,000 active | AID 624287; active = well fitted activation curve with a large enough effect; inconclusive = small, poorly fitted or top-dose-only effect, or another doubt; inactive = no such curve, though single readings can be large or run the other way; cell line not stated here;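 note: phosphodiesterase inhibitor Ro 20-1724 added with compounds to block cAMP breakdown; potency is the fitted concentration of half-maximal effect; nearly all actives have a fitted effect of over 60% in size; about a fifth of the inactives were tested at one dose only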
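Cells stably selected in G418 were plated at 2000/well, grown 16-24 hr, then given compounds in DMSO with the PDE inhibitor […] (300 uM solution added) for 30 min at 37C; cAMP was read by HTRF.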
Active calls of the source: *; ? = inconclusive; . = not tested or not shown; & = joins results of further samples; [ ] = another dose, or the depositor's remark.

Screens in order – gsp antag	TRPV1 PAM	Sfp PPTase inh	CtBP-E1A blk	ClpP mod	Menin MLL FP FL	gsp ag
1: N#Cc1ccncc1S(=O)c1ccc(Cl)cc1 (stereo not drawn)
 : 9%	-24	7%	4	-0.4%	3.9	-44%[inhibitor]
2: COCCNC(=O)C(c1ccc(O)cc1)N(Cc1cccs1)C(=O)CCC(=O)Nc1ccccn1 (stereo not drawn)
 : -8%	-6	9%	2	.	-5.0	6%
3: Cc1cc(=O)[nH]c(N/N=C/c2c(F)c(F)c(F)c(F)c2F)n1
 : ?	?	?	2	1.3%	-0.5	?
4: CN1CCN(S(=O)(=O)c2cccc(C(=O)N(C)C(c3ccccc3)c3ccccc3)c2)CC1
 : -2%	-24	.	-7	-4.2%	.	-63%[inhibitor]
5: CCC(C)(C)NC(=O)C(c1ccc(C)cc1)N(CCN1CCOCC1)C(=O)CNC(=O)c1cccs1 (stereo not drawn)
 : 10%	-6	1%	0	.	1.4	0%[15.4 µM]
6: CCN(CCCNS(=O)(=O)c1ccc2c(c1)oc(=O)n2C)c1cccc(C)c1
 : 4%	26	-10%	-26	-4.8%	0.7	-27%
7: CCOc1cccc2sc(N(CCCN(C)C)C(=O)c3ccc(C(=O)c4ccccc4)cc3)nc12
 : 6%	1	-16%	-23	-0.5%	1.4	5%
8: COCCCn1c(=O)c2ccccc2n2c(=S)[nH]nc12
 : ?	5	79µM*	-7	4.2%	8.2	?
9: Oc1ccc(C=NC2CCCCC2)cc1
 : 10%	9	-4%	3	-3.0%	-0.4	-1%[15.4 µM]
10: O=C(Nc1nc(-c2ccc(Cl)s2)cs1)c1ccco1
 : -11%	-8	-4%	7	.	-0.1	-6%[15.4 µM]
11: Cc1ccsc1/C=C1\CCC(C2CCCC2)C1=O (stereo not drawn)
 : -2%	-2	5%	38	.	-2.3	-19%
12: CCC(=O)OCc1c(C(F)(F)F)nn(C)c1Sc1ccc(Cl)cc1
 : -21%	10	-6%	71	0.5%	2.9	-38%[inhibitor]
13: Cc1cc(-c2nnc(SCC(=O)c3ccc(Cl)cc3)o2)no1
 : 10%	-21	-1%	-2	.	6.3	-1%[15.4 µM]
14: COc1ccc2c(CC(=O)OCC(=O)N(C)c3c(N)n(Cc4ccccc4)c(=O)[nH]c3=O)coc2c1
 : 9%	.	.	-18	-7.8%	.	-8%
15: CCCCn1nnc(NC(=O)c2ccc(-c3cccc(Cl)c3)o2)n1
 : ?	1	-30%	-18	32µM*	-2.2	?
16: Cc1cc(=O)oc2c(CN3CCC(C)CC3)c(O)c(Cl)cc12
 : 5%	-9	-4%	13	408%	?	?
17: CCOC(=O)CSc1nc(N)c(C#N)c(CC(C)C)c1C#N
 : -12%	-6	19%	8	-22%	0.9	-10%
18: O=C1c2cccc3c(N4CCCCC4)ccc(c23)C(=O)N1c1ccc(O)cc1
 : ?	-3	7%	16	.	?	-8%
19: CN1C(=O)/C(=C/c2ccccc2OCc2cccc(F)c2)N(C)C1=S
 : -1%	2	-2%	14	1.2%	-1.7	1%
20: O=C(O)c1ccc(Cl)c(S(=O)(=O)Nc2ccccc2C(=O)Nc2ccc(Cl)cc2)c1
 : -22%	10	6%	?	.	0.0	-3%[15.4 µM]
21: O=C(O)/C=C/C(=O)N(CC1CCCO1)C1CC(=O)N(c2c(Cl)cccc2Cl)C1=O (stereo not drawn)
 : 4%	0	-11%	7	.	3.9	15%[15.4 µM]
22: O=C(NC1CCCCC1)C(c1ccc(F)cc1)N(Cc1cccs1)C(=O)CN1C(=O)c2ccccc2S1(=O)=O (stereo not drawn)
 : -10%	5	24%	-2	-2.7%	-6.6	?
23: O=C(OCCN1CCOCC1)C1(c2ccccc2)CCCCC1
 : -6%	.	-6%&6%	0	-0.3%	?	.
24: Cc1nn(C)c(C(=O)Nc2c(C)nn(Cc3c(F)c(F)c(F)c(F)c3F)c2C)c1Br
 : -2%	?	22%	8	-2.6%	.	-7%
25: CCc1nc(SCC(=O)NC2CCCC2)c2oc3ccccc3c2n1
 : -7%	0	3%	5	-1.0%	.	?
26: C[C@@H]1CN([C@@H](C)CO)C(=O)c2cc(Br)cnc2O[C@H]1CN(C)Cc1cccc(C(=O)O)c1
 : .	.	.	0	-1.8%	.	-45%[inhibitor]
27: CNC(=S)NNC(=O)c1oc2nc(-c3ccccc3)cc(C)c2c1N
 : 11%	8	9%	-26	.	-0.1	-23%[15.4 µM]
28: O=C(O)c1cccc(COc2ccc(CO)cc2Cl)c1
 : -16%	5&10	7%	16	1.0%	2.5	-34%
29: N#CC(c1nc2ccccc2nc1N1CCCC1)S(=O)(=O)c1cccs1 (stereo not drawn)
 : 2%	15	50µM*	-11	-23%	?	0%
30: Cc1ccccc1C(NC(N)=O)c1ccccc1 (stereo not drawn)
 : 0%	9	0%	-5	0.4%	3.9	0%
31: COc1ccc(CNc2oc(COc3ccccc3Cl)nc2C#N)cc1
 : -20%	3	9%	-9	-0.5%	1.8	-1%
32: COc1ccc(CC(=O)Nc2cc(S(=O)(=O)N3CCOCC3)ccc2N2CCCC2)c(OC)c1
 : -12%	.	.	-8	-3.3%	.	11%
33: CCCOc1cc(N)ccc1C(=O)OCCN(CC)CC
 : 0%	-15	19%	6	-0.1%	3.9[24.8 µM]	.
34: O=C1CSC(c2ccc([N+](=O)[O-])cc2)N1C1CCCCC1 (stereo not drawn)
 : -10%	-3	-6%	-10	.	0.1	19%
35: COc1ccc(CN2C(=O)C(CC(=O)NCC3CCCCC3)CC(C(=O)N(C)C)=C2C)cc1 (stereo not drawn)
 : .	.	.	1	0.9%	.	27%
36: Cc1cn([C@H](C(=O)NCCCCCCCCCCC(=O)N2CCN(C(=O)OC(C)(C)C)CC2)[C@@H](C)O)nn1
 : -25%	-3	.	0	-4.1%	.	0%
37: C=Cc1cnc([N+](=O)[O-])n1C
 : .	.	.	-1	-0.7%	.	30%
38: FC(F)(F)c1nnc2ccc(NCc3ccccc3)nn12
 : 8%	1	13%	-4	.	-0.7	9%
39: CC(C)OCCCNC(=O)C(=O)N/N=C/c1ccc(OCc2ccccc2)cc1
 : 14%	6	1%	4	1.4%	-2.0	0%[15.4 µM]
40: Cc1ccsc1/C=C1/NC(=O)N(Cc2ccc(F)cc2)C1=O
 : 14%	-15	-15%	-11	.	15	0%[15.4 µM]
41: CCOc1ccccc1C1C(C(N)=O)=C(C)Nc2nc(-c3cccc(C)c3)nn21 (stereo not drawn)
 : -11%	?	-8%	-13	-8.6%	2.6	16%
42: Cc1ccc(NC(=O)CSc2nnc(-c3ccccc3C)o2)cc1C
 : -12%	-1	5%	-9	-3.9%	5.8	8%
43: COc1ccc(CC(CC(=O)O)C(=O)Nc2ccc(Cl)c(Cl)c2)cc1 (stereo not drawn)
 : 18µM*	-5	15%	-1	0.3%	1.0	4%
44: CCCn1c(SCC(=O)N2CCCc3ccccc32)nnc1-c1ccccn1
 : -12%	6	3%	-2	-0.2%	2.0	-7%
45: CCOc1ccccc1NC(=O)C(NCCc1ccc(OC)cc1)c1ccccc1 (stereo not drawn)
 : ?	0	?	2	-0.8%	.	24%
46: C/C(=N\NC(=O)c1ccccc1[N+](=O)[O-])c1c(O)cc(C)oc1=O
 : -4%	2	20%	0	-0.7%	1.7	10%[15.4 µM]
47: CCOC(=O)CSc1nnc(C)n1N
 : 2%	-1	-25%	2	-2.4%	4.2	-14%
48: O=C(Nc1ncccc1Cl)C(Sc1ccccc1)c1ccccc1 (stereo not drawn)
 : -8%	-16	-16%	8	-0.2%	-2.4	?
49: C/C(=N/OCO/N=C(\C)c1ccccc1F)c1ccccc1F
 : 15%	-7	-6%	13	2.7%	7.5	18%
50: O=S(=O)(c1ccc2c(c1)OCCCO2)N1CCNCC1
 : 3%	-16	18%	5	-1.3%	2.1	-21%

Next results.
Screens in order – gsp antag	TRPV1 PAM	Sfp PPTase inh	CtBP-E1A blk	ClpP mod	Menin MLL FP FL	gsp ag
51: O=C1NC(c2ccccc2Cl)Nc2ccccc21 (stereo not drawn)
 : 1%	8	8%	7	25µM*	0.7	16%
52: Cc1cccc(NC(=O)C2CC(=O)N(c3ccc4c(c3)OCCO4)C2)n1 (stereo not drawn)
 : -4%	-1	.	.	1.5%	.	?
53: Cc1nc2c(C(F)(F)F)cccc2c2c1CCS2
 : 0%	?	6%	1	.	1.5	-6%[15.4 µM]
54: COc1ccc(NC(=O)Nc2cccc3c2O[C@H](CN(C)S(=O)(=O)c2cccs2)[C@@H](C)CN([C@H](C)CO)C3=O)cc1
 : ?	.	.	-14	-0.8%	.	-4%
55: CCOC(=O)c1c[nH]c2c([N+](=O)[O-])cc(OC)cc2c1=O
 : -2%	.	.	?	.	.	2%
56: COC(=O)Cc1c(C)c2c(OCc3nn[nH]n3)cc(C)cc2oc1=O
 : -2%	7	8%	0	-23%	-3.7	?
57: CCOC(=O)c1cc(CC)sc1N1C(=O)CC(Sc2ccccc2C(=O)O)C1=O (stereo not drawn)
 : -12%	9	3.5µM*	-7	.	4.7	?
58: CCCN(Cc1nnc(-c2ccccc2Cl)o1)C(=O)c1cc([N+](=O)[O-])cc([N+](=O)[O-])c1
 : -3%	-1	5%	-4	.	3.3	-4%
59: CC1CN(CC(O)COC2CCC(C(C)(C)C)CC2)CC(C)O1 (stereo not drawn)
 : 1%	-2	1%	-1	1.4%	3.2	?
60: Cc1ccc(CNC(=O)CCS(=O)(=O)c2cc3c(cc2Cl)NC(=O)CO3)o1
 : 0%	21	2%	-2	3.1%	-3.2	-8%

Screening data: PubChem, National Center for Advancing Translational Sciences (NCATS)
